Assay outcomes: PubChem BioAssay, National Center for Advancing Translational Sciences (NCATS)
TRPML1 blocker: blocks the human TRPML1 channel. AID 624415. 390,000 tested, 0.02% active. activity change, negative = inhibition, % (no concentration beside the values). TRPML1-inducible cells, Ca2+ dye fluorescence, FDSS; stronger effect = lower value; inhibition of EC80 agonist-evoked calcium signal. Q9GZU1; in the data active means activity change below about -50%; inconclusive means about -30% to -50%; inactive means above about -30%;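 also: stimulus is agonist 54-4 at its EC80 concentration; % is scaled to controls: 0 for no effect and ±100 for the full control effect; compound concentration not given in the record; the text of the record puts the active cut at -80%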
Target sequence (Q9GZU1 whole entry, looked up): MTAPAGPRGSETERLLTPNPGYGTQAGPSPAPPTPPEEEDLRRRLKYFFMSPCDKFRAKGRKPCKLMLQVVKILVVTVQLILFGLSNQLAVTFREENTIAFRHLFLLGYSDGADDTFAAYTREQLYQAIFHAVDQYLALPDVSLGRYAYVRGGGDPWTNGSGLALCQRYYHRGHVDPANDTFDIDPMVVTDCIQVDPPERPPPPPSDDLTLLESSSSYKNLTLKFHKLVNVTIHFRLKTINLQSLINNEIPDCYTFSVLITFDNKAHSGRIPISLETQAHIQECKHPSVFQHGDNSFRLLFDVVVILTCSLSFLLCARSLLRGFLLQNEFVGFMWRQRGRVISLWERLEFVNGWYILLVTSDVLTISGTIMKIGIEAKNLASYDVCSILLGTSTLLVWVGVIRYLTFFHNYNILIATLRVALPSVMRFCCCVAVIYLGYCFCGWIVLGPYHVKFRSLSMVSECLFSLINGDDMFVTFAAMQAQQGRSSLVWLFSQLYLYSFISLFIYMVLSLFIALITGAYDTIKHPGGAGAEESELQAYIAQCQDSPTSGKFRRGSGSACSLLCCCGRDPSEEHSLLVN
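Calcium fluorescence in TRPML1-DL cells induced overnight with Tet: a 110 s read after compound pin addition, then a 110 s antagonist read after challenge with 54-4 at 4 uM final (EC80).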
Menin-MLL FL inh: displaces fluorescein MLL peptide from human menin | 290,000 tested, under 10 active | Fluorescence polarization, fluorescein-MLL peptide displacement from menin | FP activity change, % at 61.4 µM; inconclusive = falling polarisation curve, or a change in total fluorescence; inactive = total fluorescence flat and polarisation flat or rising; no compound was filed as active; the % refers to the polarisation; negative = inhibition;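 also: % of control where 0% means no effect; inhibitors lower the polarisation; unlabelled MLL peptide was the positive control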
TRPML1 agonist: human mucolipin-1 channel agonism | Q9GZU1 | 410,000 tested, 0.12% active | AID 624414 | TRPML1-expressing cells, Ca2+ dye fluorescence, FDSS; host cell line not named in the record; reference of the full effect not given here | activation, % (concentration not given with the values); in the data active = activation above about 50%; inconclusive = about 30% to 50%; inactive = below about 30%; also: 0% is about no effect; the text of the record puts the active cut at 80%
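Tetracycline-induced TRPML1-DL cells are seeded and incubated overnight before loading with a no-wash Ca2+ dye and quencher. Agonist activity is taken from the 110 s fluorescence read following compound pin-transfer on an FDSS, before EC80 54-4 challenge.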
gsp antagonist: gsp mutant antagonism; gsp-mutant cells, cAMP HTRF, 30 min; control for the full effect not named in the record; Potency, µM (series often up to 76.9 µM), inactives show top-dose activity change, negative = inhibition, actives largely listed as inhibitors; 340,000 tested, 0.4% active; active = falling curve of any shape with a large fitted effect; inconclusive = falling curve, mostly with a smaller effect; inactive = flat or rising curve; cell line not stated here;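 also: intracellular cAMP measured with PDE inhibitor Ro 20-1724 present during compound exposure; potency is read from the fitted curve at half-maximal effect; % is scaled to controls: 0 for no effect and ±100 for the full control effect; nearly all actives have a fitted effect of over 65% in size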
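Cells in G418 medium, seeded 16-24 h, 37C; buffer exchange to DPBS + 1 mM CaCl2, 0.5 mM MgCl2, 0.05% BSA; cpds in DMSO + […] (300 uM stock), 30 min 37C; HTRF cAMP detection.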
gsp ag: agonists of gsp mutant (McCune-Albright syndrome); AID 624287; gsp mutant cells, cAMP HTRF, 30 min; control for the full effect not named in the record; Potency, µM (highest dose often 76.9 µM), for the others: top-dose activation (cAMP increase), actives largely listed as activators; 340,000 tested, 0.13% active; active = well fitted activation curve with a large enough effect; inconclusive = small, poorly fitted or top-dose-only effect, or another doubt; inactive = no such curve, though single readings can be large or run the other way; cell line not stated here;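 also: phosphodiesterase inhibitor Ro 20-1724 added with compounds to block cAMP breakdown; potency is read from the fitted curve at half-maximal effect; nearly all actives have a fitted effect of over 60% in size; about a fifth of the inactives were tested at one dose only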
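Cells stably selected in G418 were plated at 2000/well, grown 16-24 hr, then given compounds in DMSO with the PDE inhibitor […] (300 uM solution added) for 30 min at 37C; cAMP was read by HTRF.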
ClpP mod: qHTS Assay for Activators of ClpP; ATP-dependent Clp protease proteolytic subunit (Bacillus subtilis (strain 168)), P80244; purified B. subtilis ClpP, FRET peptide cleavage, 20 min; Potency, µM (highest dose often 57.5 µM), for the others: at the top dose activity change, negative = active; 340,000 tested, 1.9% active; AID 651965, 2013; active = well fitted falling curve with a large enough effect; inconclusive = small, poorly fitted or top-dose-only effect; inactive = no such curve, though single readings can be large or run the other way; also: potency is read from the fitted curve at half-maximal effect; the source files actives as falling curves though it sought activators and does not explain the sign; nearly all actives have a fitted effect of over 65% in size; many hits overshoot -100%
Target sequence (P80244 whole entry, looked up): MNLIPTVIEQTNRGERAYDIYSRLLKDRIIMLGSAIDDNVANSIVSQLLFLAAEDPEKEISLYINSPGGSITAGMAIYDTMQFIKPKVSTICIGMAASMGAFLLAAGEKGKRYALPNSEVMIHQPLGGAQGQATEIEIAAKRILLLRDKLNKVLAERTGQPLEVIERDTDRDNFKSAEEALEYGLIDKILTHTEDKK
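Buffer: 100 mM Tris/HCl pH8, 100 mM KCl, 0.05% low protease BSA, 2.5% glycerol, 0.01% Tween-20. ClpP 10 microg/mL final; 20 min RT; delta FRET normalized to ADEP and DMSO controls.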
* = called active by the depositor; ? = inconclusive; · = no result given; & = joins results of further samples; [ ] = another dose, or the depositor's remark.

SMILES	TRPML1 blocker	Menin-MLL FL inh	TRPML1 agonist	gsp antagonist	gsp ag	ClpP mod
Cc1ccc(OCC(=O)Nc2ccc(N(C)C)cc2)cc1	9.6	0.6	-0.8	0.5%	-7.2%	-1.4%
COc1cccc(NC(=O)NC2CCN(Cc3nnnn3Cc3ccc4c(c3)OCO4)CC2)c1	-8.6	-0.6	-0.2	-11.3%	-28.3%	-1.7%
O=C(CC1SC(N2CCCC2)=NC1=O)Nc1ccc(C(=O)Nc2ncccc2O)cc1 (configuration not stated)	1.4	·	-0.2	-3.7%	-6.9%[15.4 µM]	0.9%
CN(C)c1ccc(-c2nc3ccccn3c2/N=C/c2ccc(Br)cc2)cc1	-17.9	6.9	0.3	-13.8%	-8.1%	-22.9%
O=C1c2cccc3c(N4CCCCC4)ccc(c23)C(=O)N1c1ccccn1	-12.1	?	5.7	-15.1%	-5.4%	-1.9%
CN(CC(=O)Nc1ccc(Cl)c(C(F)(F)F)c1)C(=O)CCCc1nc2ccccc2c(=O)[nH]1	-7.5	·	0.2	-5.6%	-2.8%	0.4%
COc1ccc(CNC(=O)C2CCN(Cc3nc(-c4ccc(OC)c(OC)c4)oc3C)CC2)cc1	15.0	·	0.3	·	·	-18.9%
CCCNC(=O)c1ccc(COc2cccc3ccccc23)o1	16.0	1.3	1.2	-35.4%	-16.9%	0.0%
CCOC(=O)C(C)Sc1ncnc2c1c(-c1ccccc1)cn2-c1ccc(OC)cc1 (configuration not stated)	-2.1	-1.5	0.5	-12.1%	?	25.1µM*
COC(=O)[C@H]1[C@H]2C[C@@H]3c4[nH]c5cc(OC)ccc5c4CCN3C[C@H]2C[C@@H](OC(=O)c2cc(OC)c(OC)c(OC)c2)[C@@H]1OC	-7.7	?	0.6	-20.7%	·	-12.7%
Cc1ccc(S(=O)(=O)N2CCOCC2)cc1C(=O)Nc1ccc2c(c1)CCC2	19.2	0.4	1.5	10.1%	-3.4%	-0.9%
CCc1ccc2c(c1)/C(=N/OC)C(=O)N2	26.2	-0.9	0.4	11.2%	12.8%	·
O=C(CN1CCCc2ccccc21)N/N=C/c1ccccc1	-5.9	0.5	-0.3	8.5%	-43.4%[inhibitor]	2.2%
COc1ccccc1N(Cc1ccccc1)S(=O)(=O)c1cccc(C(=O)N2CCCCC2)c1	-1.9	·	0.0	?	18.9%	0.7%
CCS(=O)(=O)N1CCC(C(=O)Oc2ccc(Br)cc2)CC1	6.4	3.8	-0.1	-4.5%	-18.2%	·
CCN(CC)C(=O)COc1ccc(/C(C)=N/NC(=O)c2ccccc2O)cc1	1.8	-4.7	-0.2	-12.2%	?	·
O=C(O)CCC(=O)/C=C/c1ccccc1	7.1	0.8	0.9	-6.8%	-6.8%	·
O=C(COC(=O)/C=C/c1cccc(Cl)c1)NCc1cccs1	1.9	·	1.3	1.6%	4.2%	-1.9%
Cc1cccc(COc2ccc(/C(O)=C3\C(=O)C(=O)N(CCN(C)C)C3c3ccncc3)cc2)c1 (configuration not stated)	14.3	4.7	-0.2	0.6%	-21.4%	-2.3%
O=C(Nc1ccc2oc(-c3cccnc3)nc2c1)c1ccc(-c2cccc(Cl)c2)o1	-15.9	·	0.2	·	·	4.3%
N#Cc1cccc(Nc2c3c(nc4ccccc24)CCCC3)c1	25.9	-2.3	5.8	-29.1%	-66.1%[inhibitor]	-5.4%
O=C(O)CCn1nnc2ccccc21	·	3.4	·	1.1%	18.7%	-0.8%
CC(=O)Oc1ccc2oc(/C=C/N(C)C)c([N+](=O)[O-])c2c1	3.0	16.8	0.4	?	0.7%	-0.1%
CCOc1ccccc1NC(=S)N1CCC(c2nc3ccccc3o2)CC1	-12.8	-1.4	1.2	-10.4%	?	-3.8%
O=C(NCc1ccccc1F)C1CC(=O)N(Cc2ccco2)C1 (configuration not stated)	-7.6	·	-1.0	·	-33.0%[inhibitor]	1.7%
(list continues)
SMILES	TRPML1 blocker	Menin-MLL FL inh	TRPML1 agonist	gsp antagonist	gsp ag	ClpP mod
COc1ccccc1OCC(=O)Nc1cc(-c2ccc(C)cc2)no1	-13.6	·	-0.2	·	·	0.6%
CCOC(=O)Cc1c(C)c2c(C)[nH]nc2oc1=O	13.4	1.3	-0.4	7.6%	7.2%	-30.0%
CCc1ccccc1NNC(=O)CCc1ccccc1	26.1	3.7	1.5	8.9%	11.0%[15.4 µM]	·
CC(=O)C1=NN(c2ccccc2)C(c2cccs2)N1c1ccc(N(C)C)cc1 (configuration not stated)	16.7	0.8	2.2	?	-27.2%	-1.7%
CN1CCc2c(sc3c2C(=O)NC(/C=C\c2ccccc2)N3)C1 (configuration not stated)	8.0	?	1.7	5.5%	-5.0%[15.4 µM]	·
Cn1c(=O)c2c(nc(SCC(=O)NCC3CCCO3)n2Cc2ccc(F)cc2)n(C)c1=O (configuration not stated)	10.0	2.3	0.1	-1.8%	3.7%[15.4 µM]	1.6%
COc1ccc(C(C(=O)NC2CCCC2)N(CCN(C)C)C(=O)c2snc(C(N)=O)c2N)cc1 (configuration not stated)	18.1	-2.7	-0.2	3.5%	7.2%	?
O=C(CSCc1ccc(Cl)cc1)N1CCOCC1	10.7	8.3	-0.7	9.8%	1.2%[15.4 µM]	1.1%
CC1(C)Cc2c(cnn2-c2cccc(F)c2)C(NC(=O)c2ccc[n+]([O-])c2)C1 (configuration not stated)	5.8	·	0.2	3.3%	0.0%	-1.6%
Cc1ccc2nc(-c3cccnc3)cc(C(=O)N3CCN(c4ccc([N+](=O)[O-])cc4)CC3)c2c1	31.3	2.6	-0.1	-81.1%	2.8%[15.4 µM]	·
O=C(Nc1c(C(=O)NCc2ccco2)cnn1-c1ccccc1)c1ccc(F)cc1	-15.8	1.7	-0.4	-7.5%	-29.3%	-1.3%
O=C(Nc1nnc(-c2ccccc2)o1)c1cc(-c2cccs2)nc2ccccc12	-1.9	3.3	-0.4	?	-33.2%[inhibitor]	-14.9%
CCOCCCNC(=O)Cc1cc(=O)[nH]c(=O)[nH]1	-4.5	1.2	0.1	13.1%	-13.4%	-1.2%
COC(=O)c1cccnc1-n1c(=O)c2cccnc2n(CC(=O)Nc2c(C)cc(C)cc2C)c1=O	-4.0	·	-0.4	·	·	1.5%
CCOC(=O)c1ccc(N2C(=O)c3n[nH]c(C)c3C2c2ccc(OC)c(OC)c2)cc1 (configuration not stated)	-5.1	0.3	-0.6	-12.7%	3.7%	-0.1%
Cn1ccnc1SCc1nc2c(cnn2-c2ccccc2)c(=O)[nH]1	-4.2	3.6	-0.3	-3.4%	-6.3%	-4.9%
CC(=O)N/C(=C\c1ccccc1)C(=O)Nc1ccccc1C	2.1	-0.3	0.7	-7.8%	-5.9%	0.4%
COCCn1c(C)nnc1SCC(=O)NNC(=O)c1ccc(Cl)cc1	-8.2	-8.6	-0.2	3.1%	4.2%	·
N#Cc1cc([N+](=O)[O-])ccc1NCC1CCCO1 (configuration not stated)	14.2	3.2	0.0	-3.9%	2.5%[15.4 µM]	·
COc1ccc(NC(=O)CSCc2cc(=O)c3cc(Cl)ccc3[nH]2)cc1	13.1	·	4.0	·	·	0.0%
COc1ccc(N(CC(=O)N2CCc3ccccc32)S(=O)(=O)c2c(C)noc2C)cc1	28.5	5.4	0.7	0.5%	-1.5%	-1.8%
Cc1noc(C)c1COc1cccc(C(=O)Nc2ccc(C#N)cc2)c1	-0.6	1.0	1.3	-19.6%	8.2%	-7.3%
COc1cc(/C=N/NC(=O)c2cncc(Br)c2)cc([N+](=O)[O-])c1O	·	?	·	-13.0%	16.6%	0.4%
CCOc1ccc2nc(NC(=O)C3CCN(c4cnccn4)CC3)sc2c1	-16.6	2.2	1.0	-4.4%	-33.2%[inhibitor]	160.9%
COC(=O)CNC(=O)C1(C)C=CCN1C(=O)c1ccccc1 (configuration not stated)	-21.2	4.5&-0.7	0.8	-2.0%	?	0.8%
Next records.
SMILES	TRPML1 blocker	Menin-MLL FL inh	TRPML1 agonist	gsp antagonist	gsp ag	ClpP mod
CCN(CC)CCNC(=O)c1ccc2c(c1)NC(=O)c1ccccc1S2	0.4	-1.7	0.3	7.4%	?	-1.7%
Cc1ccc(C(=O)OCC(=O)Nc2ccc3[nH]c(=O)[nH]c3c2)cc1S(=O)(=O)N1CCOCC1	-9.8	·	0.5	2.7%	-5.0%[15.4 µM]	?
COc1ccc(NS(=O)(=O)c2cc(NS(=O)(=O)c3cccs3)ccc2C)cc1	-3.7	·	-0.3	-5.0%	6.5%	-2.9%
Cc1ccc(N2C(=O)[C@@H]3[C@H](C2=O)[C@H]2C=C(C(=O)c4ccccc4)C=CN2[C@@H]3C(=O)c2ccc(Cl)cc2)cc1	8.6	?	0.7	-4.3%	0.0%[15.4 µM]	·
O=C(Nc1nccs1)c1ccc2c(c1)OCO2	5.1	4.1	3.6	-4.6%	14.7%	-9.1%
CC(=O)Nc1c(I)c(C(=O)N[C@H]2C(O)O[C@H](CO)[C@@H](O)[C@@H]2O)c(I)c(N(C)C(C)=O)c1I (some centres not stated)	-0.9	·	-0.7	-1.8%	·	1.7%
CCCC[C@H](CN[C@@H](CNC)[C@H](C)CC)NCCC12CCC(CC1)C2	26.3	-5.4	0.4	-6.9%	-32.7%[inhibitor]	-2.3%
O=C1CCCC(=O)C1=C1SCCCS1	9.7	-1.5	-0.6	-0.6%	-8.9%	1.7%
COC(=O)c1c(-c2cccs2)csc1NC(=O)c1ccc(Cl)cc1	10.5	·	0.2	·	·	-10.4%
CC(C)C(=O)Nc1cccc(NC(=O)c2cc3ccccc3o2)c1	-0.6	2.0	0.0	-26.6%	11.2%	0.6%
COc1ccc(C(=O)NCCCNC(=O)c2ccc(C)nc2)cc1	-7.7	1.9	-0.3	-20.9%	-5.5%[15.4 µM]	·
O=C(Nc1c(Cl)cccc1Cl)c1ccc(-c2ccccc2)cc1	4.8	-0.1	-0.2	6.1%	-0.5%	-0.6%
CS(=O)(=O)N1CCC(C(=O)N2CCN(C(c3ccccc3)c3ccccc3)CC2)CC1	-8.3	-0.6	-0.5	-9.8%	24.2%	-4.5%
O=C(Nc1ccc2nc(-c3cccs3)[nH]c2c1)c1ccco1	-7.5	2.0	-0.3	-4.9%	-27.6%	7.4%
COc1ccccc1-c1ccc2nnc(SCC(=O)N3CCCC3)n2n1	5.5	·	2.9	-3.5%	-7.4%[15.4 µM]	·
Cn1cc(CN2CCC(C(O)c3cccs3)CC2)c(-c2cccc(Cl)c2)n1 (configuration not stated)	-4.7	-0.6	0.5	2.4%	-4.4%	·
CCCc1nc(SCc2ccc(Cl)cc2Cl)n[nH]1	-8.5	6.7	1.9	-10.2%	?	-1.9%
CC(C)(C)C(=O)NC1CC(=O)N(c2ccc3c(c2)OCCO3)C1 (configuration not stated)	-10.6	·	-0.7	·	·	-0.9%
CCOc1ccccc1NC(=O)NCc1cccnc1	2.8	2.1	0.0	7.7%	-15.3%	·
